From PubChem
Vaccinia stage – blocks a specific stage of Vaccinia orthopoxvirus infection, primary screen, cell-based, single point. Vaccinia-infected cells, mCherry/Venus stage reporter fluorescence; hits give low values; some inactives read as strong as hits. activity change (mCherry), % (no concentration beside the values). hit rate 0.01% among 89,000. AID 1053133, 2014;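 active = mCherry past -33% and 40 or more points under the early reporter, replicates agreeing; inconclusive = past -33% without that gap or agreement; tested in A549 cells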;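 note: scaled between vehicle wells and reference inhibitor wells; 23 nL library stock went into each well; one replicate is shown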
Vaccinia stage Venus – also measured in Vaccinia stage; calls as there; activity change (Venus), %; measured here: Venus reporter, other viral stage;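 negative = less Venus signal; first of two replicates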
An asterisk follows results filed as active; ? = inconclusive; . = not tested or not shown; & = joins results of further samples. These rows are one share of the data; the hit share may differ from the screen's.

SMILES	Vaccinia stage	Vaccinia stage Venus
COc1ccc2c3c(n(C)c2c1)[C@H](CO)N(CC1CC1)CC31CCN(C(=O)NC2CCCC2)CC1	-5.7	-6.6
COCCOC(=O)N1C(=O)[C@@]2(c3ccccc31)[C@H](c1ccc(OCCO)cc1)N1[C@H](c3ccccc3)[C@H](c3ccccc3)OC(=O)[C@H]1[C@@H]2C(=O)N1CCN(c2ncccn2)CC1	-10.1	0.1
COCC#Cc1ccc([C@H]2[C@H]3CN(S(=O)(=O)c4ccc(OC)cc4)CCCCN3[C@H]2CO)cc1	1.1	-9.8
C[C@@H]1CN([C@H](C)CO)C(=O)Cc2cc(NC(=O)CCN3CCOCC3)ccc2O[C@@H]1CN(C)C(=O)Nc1ccc(F)cc1	-4.8	-2.6
CCNC(=O)[C@H]1[C@H](CO)[C@H]2Cn3c(ccc(-c4ccccc4F)c3=O)[C@@H]1N2Cc1cccnc1	7.7	7.3
C[C@@H]1CN([C@@H](C)CO)C(=O)Cc2cc(NS(=O)(=O)c3ccccc3)ccc2O[C@@H]1CN(C)C(=O)NC1CCCCC1	-11.8	-4.3
Cc1noc(C)c1S(=O)(=O)N(C)C[C@H]1OCCCC[C@@H](C)Oc2ccc(NC(=O)c3ccccc3)cc2C(=O)N([C@@H](C)CO)C[C@H]1C	-26.3	-15.2
COc1ccc(CN(C)C[C@H]2OCCCC[C@H](C)Oc3ccc(NS(=O)(=O)c4ccc(F)cc4)cc3C(=O)N([C@@H](C)CO)C[C@H]2C)cc1	?	.
C[C@H]1CN([C@@H](C)CO)C(=O)CCCn2nncc2CO[C@H]1CN(C)S(=O)(=O)c1ccc(F)cc1	5.1&4.5	13.8&1.3
COc1cccc(S(=O)(=O)N[C@@H]2CC[C@H](CC(=O)NC3CCC3)O[C@H]2CO)c1	-6.5	3.0
COCC(=O)N1CC2(C1)CN(Cc1cc(F)ccc1F)[C@H](CO)c1[nH]c3cc(OC)ccc3c12	28.8	24.9
COCC(=O)Nc1ccc2c(c1)[C@@H]1C[C@@H](CC(=O)NCc3cccnc3)O[C@@H](CO)[C@@H]1O2	0.7	16.4
C[C@H]1CN([C@@H](C)CO)C(=O)Cc2cc(NC(=O)Cc3cn(C)c4ccccc34)ccc2O[C@@H]1CN(C)Cc1ccc(C(=O)Nc2ccccc2N)cc1	-13.7	-0.5
COc1ccc(NC(=O)N(C)C[C@H]2Oc3ccc(NC(=O)Nc4ccc(F)cc4)cc3C(=O)N([C@H](C)CO)C[C@@H]2C)cc1	18.8	13.4
CCNC(=O)C[C@@H]1CC[C@@H]2[C@H](COc3ccc(NC(=O)c4ccc(F)cc4)cc3C(=O)N2C)O1	2.5	-0.3
COc1ccc(S(=O)(=O)Nc2ccc3c(c2)CC(=O)N([C@H](C)CO)C[C@@H](C)[C@@H](CN(C)CC2CCCCC2)O3)cc1	-15.2	-1.4
CN1C(=O)c2cc(NC(=O)Cc3cccs3)ccc2OC[C@@H]2O[C@@H](CC(=O)NCCCN3CCOCC3)CC[C@@H]21	6.0	4.8
C[C@H]1CN([C@@H](C)CO)C(=O)c2cccc(NC(=O)C3CCOCC3)c2O[C@@H]1CN(C)Cc1ccc(C(F)(F)F)cc1	-0.5	7.8
COc1ccc(NC(=O)Nc2cccc3c2O[C@H](CN(C)S(=O)(=O)c2ccc(Cl)cc2)[C@@H](C)CN([C@@H](C)CO)C3=O)cc1	-1.5	3.1
O=C(Cc1ccncc1)NCC[C@@H]1CC[C@@H](NC(=O)Nc2ccc(Cl)cc2)[C@@H](CO)O1	15.5	16.0
O=C(CN1CCOCC1)N1CC(=O)N2[C@H](C1)[C@H](c1ccc(-c3cccc(F)c3)cc1)[C@@H]2CO	0.7	8.1
C[C@H]1CN([C@@H](C)CO)C(=O)c2cc(NS(=O)(=O)c3ccccc3)ccc2O[C@H]1CN(C)CC1CCCCC1	15.0	-3.7
CC(C)C#Cc1cnc2c(c1)C(=O)N([C@@H](C)CO)C[C@@H](C)[C@H](CN(C)C(=O)c1ccccc1F)O2	1.1	-2.1
COc1cccc(C(=O)Nc2ccc3c(c2)OC[C@@H](C)N(C(=O)C2CCCC2)C[C@@H](C)[C@H](OC)CN(C)C3=O)c1	-18.0	-14.0
CC(=O)N1CCCCN2[C@H](C1)[C@H](c1ccc(-c3ccccc3)cc1)[C@@H]2CO	?	.
C[C@H]1CN([C@@H](C)CO)C(=O)Cc2cc(NC(=O)NC3CCCCC3)ccc2O[C@@H]1CN(C)Cc1ccc(C(F)(F)F)cc1	-12.9	-21.0
CO[C@H]1CC[C@H]2CCOc3c(C#N)cccc3C(=O)N(C)C[C@H](OC)[C@@H](C)C(=O)N(C)C[C@@H]1O2	14.3	4.9
COCC(=O)Nc1ccc2c(c1)OC[C@H](C)NC[C@H](C)[C@H](OC)CN(C)C2=O	-0.2	-1.2
COCC(=O)N1CCCCN2[C@@H](CO)[C@@H](c3ccc(-c4cccc(C)c4)cc3)[C@@H]2C1	-4.0	-5.4
C[C@H](CO)N1C[C@H](C)[C@@H](CN(C)CC2CCCC2)Oc2cc(C3=CCCC3)ccc2S1(=O)=O	-14.2	-12.7
O=C(Cc1cccnc1)N1CCCCN2[C@H](C1)[C@@H](c1ccc(/C=C/c3ccccc3)cc1)[C@@H]2CO	?	.
CNC[C@H]1Oc2ccc(NS(=O)(=O)c3cccs3)cc2CC(=O)N([C@@H](C)CO)C[C@H]1C	-1.8	12.9
C[C@H](CO)N1C[C@H](C)[C@H](CN(C)Cc2ccncc2)Oc2ncc(C#Cc3cccnc3)cc2C1=O	13.7	11.8
C[C@@H]1CN([C@@H](C)CO)C(=O)c2cc(NS(=O)(=O)c3ccc(Cl)cc3)ccc2O[C@H]1CN(C)CC1CC1	17.2	6.4
CC(C)C#Cc1cnc2c(c1)C(=O)N([C@@H](C)CO)C[C@H](C)[C@@H](CN(C)C(=O)Nc1ccc(F)cc1)O2	-1.5	-3.0
C[C@@H]1CN([C@@H](C)CO)C(=O)Cc2cc(NC(=O)C3CC3)ccc2O[C@H]1CN(C)C(=O)Nc1ccc2c(c1)OCO2	13.5	8.5
CCCC(=O)N1CCC2(CC1)CN(C(=O)Nc1c(C)noc1C)[C@@H](CO)c1c2c2ccc(OC)cc2n1C	10.7	9.0
COCC(=O)N(C)C[C@H]1Oc2cc(-c3ccccc3F)ccc2S(=O)(=O)N([C@@H](C)CO)C[C@H]1C	0.1	-2.0
COc1ccc2c3c(n(C)c2c1)[C@H](CO)N(C(=O)Nc1ccc(F)cc1)CC31CN(Cc2ccccn2)C1	-6.2	-0.9
O=C(C1CCOCC1)N1[C@H](CO)[C@@H](c2ccccc2)C12CN(CCC(F)(F)F)C2	2.1	5.0
C[C@H](CO)N1C[C@H](C)[C@H](CN(C)Cc2ccccc2)OCCCC[C@H](C)Oc2ccc(NC(=O)Cc3ccccc3)cc2C1=O	?	.
CC(C)NC(=O)Nc1ccc2c(c1)C(=O)N([C@H](C)CO)C[C@@H](C)[C@H](CN(C)C(=O)NC1CCCCC1)O2	3.7	7.4
CCCC#Cc1ccc2c(c1)O[C@@H](CN(C)C(=O)Nc1ccc(OC)cc1)[C@@H](C)CN([C@H](C)CO)S2(=O)=O	?	.
COc1cccc(-c2ccc([C@@H]3[C@@H](C#N)N(C(=O)c4ccccn4)[C@@H]3CO)cc2)c1	-6.4	-8.8
COC(=O)C[C@@H]1C[C@H]2c3cc(NC(=O)NC4CCCCC4)ccc3O[C@H]2[C@H](CO)O1	4.8	2.7
C[C@@H]1CN([C@@H](C)CO)C(=O)c2cccc(NC(=O)c3ccc(-c4nccs4)cc3)c2O[C@@H]1CN(C)S(C)(=O)=O	18.2	9.6
COc1ccc2c3c(n(C)c2c1)[C@@H](CO)N(C(C)=O)CC31CN(Cc2ccc(Cl)cc2)C1	?	.
C[C@H]1CN([C@@H](C)CO)C(=O)c2cc(NC(=O)CCCN(C)C)ccc2O[C@@H]1CN(C)C(=O)NC1CCCCC1	9.2	7.6
N#C[C@@H]1[C@H](c2ccc(C3=CCCC3)cc2)[C@@H](CO)N1C(=O)c1cccc(F)c1	6.2	14.0
CC(=O)N(C)C[C@H]1OCc2ccccc2-c2c(n(C)c3ccccc23)C(=O)N([C@@H](C)CO)C[C@@H]1C	18.2	25.2
O=C(Nc1ccccc1)N[C@H]1CC[C@@H](CCn2cc(-c3ccccc3F)nn2)O[C@@H]1CO	-12.0	-4.3
CO[C@H](CN(C)S(=O)(=O)c1cn(C)cn1)[C@@H](C)CN(C(=O)Nc1ccc(C(F)(F)F)cc1)[C@H](C)CO	14.2	11.2
Cc1noc(C)c1NC(=O)Nc1cccc2c1O[C@@H](CN(C)C(=O)Nc1cccc3ccccc13)[C@@H](C)CN([C@@H](C)CO)C2=O	2.6	6.0
COc1ccc(C2=NOC(C(=O)NO)C2)cc1OC1CCCC1 (stereo not drawn)	-25.3	-20.9
C[C@@H]1CN([C@@H](C)CO)C(=O)c2cc(/C=C/c3ccccc3)cnc2O[C@H]1CN(C)C(=O)Nc1ccc(C(F)(F)F)cc1	?	.
COc1ccc(NC(=O)N[C@H]2CC[C@@H](CCn3cc(-c4ccc(F)cc4)nn3)O[C@@H]2CO)cc1	-2.6	-4.6
Cn1cnc(S(=O)(=O)N[C@@H]2CC[C@@H](CC(=O)NCC3CC3)O[C@@H]2CO)c1	6.9	8.9
C[C@H](CO)N1C[C@H](C)[C@H](CN(C)S(=O)(=O)c2cn(C)cn2)OCCCC[C@H](C)Oc2ccc(NS(=O)(=O)c3cn(C)cn3)cc2C1=O	27.9	10.1
C[C@H](NC(=O)C[C@H]1CC[C@@H]2[C@H](COC[C@@H](O)CN2Cc2cc(F)ccc2F)O1)c1ccccc1	2.6	-0.2
C[C@H]1CCCCO[C@H](CN(C)C(=O)CCC(F)(F)F)[C@@H](C)CN([C@@H](C)CO)C(=O)c2cc(NC(=O)C3CCCCC3)ccc2O1	?	.

Entries of single compounds, looked up by structure. Screens in order: Vaccinia stage, Vaccinia stage Venus
C[C@H]1CN([C@@H](C)CO)C(=O)CCCn2nncc2CO[C@H]1CN(C)S(=O)(=O)c1ccc(F)cc1 is listed as 5.1&4.5, 13.8&1.3
CCNC(=O)[C@H]1[C@H](CO)[C@H]2Cn3c(ccc(-c4ccccc4F)c3=O)[C@@H]1N2Cc1cccnc1 is listed as 7.7, 7.3
C[C@@H]1CN([C@@H](C)CO)C(=O)Cc2cc(NS(=O)(=O)c3ccccc3)ccc2O[C@@H]1CN(C)C(=O)NC1CCCCC1 is listed as -11.8, -4.3
CC(C)C#Cc1cnc2c(c1)C(=O)N([C@@H](C)CO)C[C@H](C)[C@@H](CN(C)C(=O)Nc1ccc(F)cc1)O2 is listed as -1.5, -3.0

The listing picks up, starting 3 compounds before the break.
SMILES	Vaccinia stage	Vaccinia stage Venus
C[C@H](CO)N1C[C@H](C)[C@H](CN(C)S(=O)(=O)c2cn(C)cn2)OCCCC[C@H](C)Oc2ccc(NS(=O)(=O)c3cn(C)cn3)cc2C1=O	27.9	10.1
C[C@H](NC(=O)C[C@H]1CC[C@@H]2[C@H](COC[C@@H](O)CN2Cc2cc(F)ccc2F)O1)c1ccccc1	2.6	-0.2
C[C@H]1CCCCO[C@H](CN(C)C(=O)CCC(F)(F)F)[C@@H](C)CN([C@@H](C)CO)C(=O)c2cc(NC(=O)C3CCCCC3)ccc2O1	?	.
CCCC(=O)N1CC2(C1)CN(S(C)(=O)=O)[C@H](CO)c1c2c2ccc(OC)cc2n1C	11.0	4.5
C[C@@H]1CN([C@@H](C)CO)C(=O)c2cc(Br)cnc2O[C@H]1CN(C)Cc1ccncc1	28.7	1.7
C[C@@H]1CN([C@@H](C)CO)C(=O)c2cc(NC(=O)CCC(F)(F)F)ccc2O[C@@H]1CN(C)Cc1ccc(C(F)(F)F)cc1	-13.0	-6.8
COCC(=O)N1CC(=O)N2[C@H](CO)[C@@H](c3ccc(C#CC4CCCC4)cc3)[C@H]2C1	-5.9	-3.8
C[C@H](CO)N1C[C@H](C)[C@H](CN(C)C(=O)Nc2cccc3ccccc23)OCCCC[C@H](C)Oc2ccc(NC(=O)NC3CCCCC3)cc2C1=O	-9.6	-1.4
CCCNC(=O)N1C[C@H](O)COC[C@H]2O[C@H](CC(=O)N3CCCCC3)CC[C@@H]21	8.4	6.5
O=C(C[C@H]1C=C[C@@H](NC(=O)C2CCOCC2)[C@@H](CO)O1)NCc1ccccc1Cl	12.3	13.1
C=CCNC(=O)[C@H]1[C@@H]2C(=O)O[C@@H](c3ccccc3)[C@@H](c3ccccc3)N2[C@@H](c2ccc(OCCO)cc2)[C@]12C(=O)Nc1ccccc12	0.6	3.1
CC(C)C#Cc1ccc2c(c1)O[C@@H](CN(C)S(=O)(=O)c1cn(C)cn1)[C@H](C)CN([C@@H](C)CO)S2(=O)=O	-17.0	-23.7
COc1ccc(S(=O)(=O)N(C)C[C@H]2OCCCC[C@@H](C)Oc3ccc(NS(=O)(=O)c4cccs4)cc3C(=O)N([C@H](C)CO)C[C@@H]2C)cc1	-3.4	-3.9
C[C@H]1CN([C@@H](C)CO)C(=O)c2c(c3ccccc3n2C)-c2ccccc2CO[C@@H]1CN(C)Cc1ccc(F)cc1	?	.
C[C@H]1CN([C@@H](C)CO)C(=O)c2cc(NC(=O)CCN3CCOCC3)ccc2O[C@@H]1CN(C)C(=O)Nc1ccc(F)cc1	12.4	6.7
O=C(Nc1ccccc1Cl)N1C[C@H]2[C@@H](c3ccccc31)[C@H](CO)N2Cc1ccccc1	3.0	7.7
O=C(c1cccc(F)c1)N1CCCCN2[C@H](CO)[C@@H](c3ccc(-c4ccncc4)cc3)[C@H]2C1	42.8	10.4
COc1ccc(S(=O)(=O)N(C)C[C@@H]2Oc3ccc(NC(=O)Cn4cnnn4)cc3C(=O)N([C@@H](C)CO)C[C@@H]2C)cc1	-2.8	-11.5
Cc1noc(C)c1S(=O)(=O)Nc1ccc2c(c1)CC(=O)N([C@H](C)CO)C[C@H](C)[C@H](CN(C)Cc1ccccc1)O2	9.2	5.3
Cc1ccc(S(=O)(=O)N(C)C[C@H]2Oc3ccc(NC(=O)NC4CCCCC4)cc3C(=O)N([C@@H](C)CO)C[C@H]2C)cc1	?	.
O=C(N[C@@H]1CC[C@H](CCn2cc(C3(O)CCCC3)nn2)O[C@H]1CO)C1CCOCC1	-1.6	0.4
